gsp antagonist = qHTS for Antagonists of gsp, the Etiologic Mutation Responsible for Fibrous Dysplasia/McCune-Albright Syndrome: qHTS | actives 0.4% (n = 340,000) | Potency, µM (titrated, usually from 76.9 µM), for the others: at the highest dose activity change, negative = inhibition, hits mostly inhibitors | AID 624288, 2012 | gsp-mutant cells, cAMP HTRF, 30 min; control for the full effect not named in the record; active = falling curve of any shape with a large fitted effect; inconclusive = falling curve, mostly with a smaller effect; inactive = flat or rising curve; cell line not stated here;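 further: intracellular cAMP measured with PDE inhibitor Ro 20-1724 present during compound exposure; potency means the concentration at half of the fitted maximal effect; on the % scale 0 is the no-effect control and ±100 the full control effect; nearly all actives have a fitted effect of over 65% in size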
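Measurement of cellular cAMP by homogeneous time-resolved fluorescence following a 30 min compound exposure at 37C. The PDE inhibitor […] was present throughout; the assay buffer was DPBS with 0.05% BSA and 0.005% Tween 20.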
gsp ag = qHTS for Agonist of gsp, the Etiologic Mutation Responsible for Fibrous Dysplasia/McCune-Albright Syndrome: qHTS | actives 0.13% (n = 340,000) | Potency, µM (series often up to 76.9 µM), for inactives: at the top dose activation (cAMP increase), actives largely listed as activators | gsp mutant cells, cAMP HTRF, 30 min; control for the full effect not named in the record; active = well fitted activation curve with a large enough effect; inconclusive = small, poorly fitted or top-dose-only effect, or another doubt; inactive = no such curve, though single readings can be large or run the other way; cell line not stated here;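 further: phosphodiesterase inhibitor Ro 20-1724 added with compounds to block cAMP breakdown; potency means the concentration at half of the fitted maximal effect; nearly all actives have a fitted effect of over 60% in size; about a fifth of the inactives were tested at one dose only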
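Cells in DMEM/10% FBS with G418 were pretreated with compounds in DMSO plus […] (300 uM stock) for 30 min at 37C. cAMP was measured by HTRF (cAMP-d2 plus anti-cAMP antibody-K) after 30 min at room temperature.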
ClpP mod = qHTS Assay for Activators of ClpP. purified B. subtilis ClpP, FRET peptide cleavage, 20 min. Potency, µM (titrated, usually from 57.5 µM), without a hit: at the highest dose activity change, negative = active. actives 1.9% (n = 340,000); active = well fitted falling curve with a large enough effect; inconclusive = small, poorly fitted or top-dose-only effect; inactive = no such curve, though single readings can be large or run the other way; further: potency means the concentration at half of the fitted maximal effect; the source files actives as falling curves though it sought activators and does not explain the sign; nearly all actives have a fitted effect of over 65% in size; many hits overshoot -100%
Target sequence (P80244 whole entry, looked up): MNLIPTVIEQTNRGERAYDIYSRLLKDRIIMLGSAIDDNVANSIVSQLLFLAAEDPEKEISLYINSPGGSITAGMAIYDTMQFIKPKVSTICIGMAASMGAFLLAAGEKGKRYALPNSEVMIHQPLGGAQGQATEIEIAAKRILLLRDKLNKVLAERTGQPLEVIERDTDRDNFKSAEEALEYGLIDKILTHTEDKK
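FRET quenching reversal measured ClpP activation: 10 microg/mL B. subtilis ClpP at pH 8 with the FRET-FV decapeptide, read at 430 nm after 320 nm excitation. The 20-min minus 0-min signal was scaled between DMSO/no-enzyme wells and ADEP (5.8 microM final).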
PINK1 modulator = A Quantitative High throughput Screen to Identify Chemical Modulators of PINK1 Expression; PINK1 immunofluorescence, high-content cytometry, 24 h; Potency, µM (top dose mostly 76.6 µM), for the others: at the top dose activation (PINK1 increase), actives largely listed as activators; actives 0.2% (n = 410,000); active = well fitted activation curve with a large enough effect; inconclusive = small, poorly fitted or top-dose-only effect; inactive = flat fitted curve, though single readings scatter; cell line not stated here;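 further: potency means the concentration at half of the fitted maximal effect; % of control where 0% means no effect; nearly all actives have a fitted effect of over 65% in size; a mitochondrial uncoupler was the plate control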
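Compound titrations (5 concentrations, 24 h) on a stable cell line; DMSO and CCCP controls. Endpoint: fixed-cell PINK1 immunofluorescence with mitochondrial, cell and nuclear markers, scanned by microplate cytometer.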
Menin-MLL FL inh = qHTS Assay for Inhibitors Targeting the Menin-MLL Interaction in MLL Related Leukemias: Competition With Fluorescein Labeled MLL-derived Peptide | FP activity change, % at 61.4 µM | 290,000 tested, under 10 active | Fluorescence polarization, fluorescein-MLL peptide displacement from menin | AID 1766, 2009; inconclusive = falling polarisation curve, or a change in total fluorescence; inactive = total fluorescence flat and polarisation flat or rising; no compound was filed as active; the % refers to the polarisation; negative = inhibition;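 further: % of control where 0% means no effect; inhibitors lower the polarisation; unlabelled MLL peptide was the positive control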
Sfp inh = qHTS Assay for Inhibitors of Bacillus subtilis Sfp phosphopantetheinyl transferase (PPTase); Biochemical Sfp PPTase activity, qHTS; Potency, µM, without a hit: max response, negative = inhibition, hits mostly inhibitors; actives 3.5% (n = 310,000); active means well fitted inhibition curve with a large enough effect; inconclusive means small, poorly fitted or top-dose-only effect, or another doubt; inactive means no such curve, though single readings can be large or run the other way;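 further: the enzyme is Sfp with the accession as filed and its product quenches rhodamine fluorescence; potency means the concentration at half of the fitted maximal effect; 0% = enzyme reaction without inhibitor and -100% = no enzyme wells; top concentration of the series not given in the record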
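Buffer: 50 mM Hepes-Na pH 7.6, 10 mM MgCl2, 0.01% Nonidet P-40, 0.01% BSA. Enzyme 15 nM, pre-exposed to compound 15 min; substrates then added and fluorescence change tracked over 30 min.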
D2 agonist = Beta-Arrestin HTS for Positive Allosteric Modulators of the Human D2 Dopamine Receptor: Agonists. AID 624465, 2012. activation, % (test concentration not listed). D(2) dopamine receptor (Homo sapiens), P14416. DiscoveRx PathHunter D2 beta-arrestin, luminescence, 90 min; 100% = 57 uM dopamine signal. actives 0.084% (n = 360,000); in the data active = activation above about 40%; inconclusive = about 15% to 40%; inactive = below about 15%; further: compound concentration not given in the record; the text of the record calls up to 30% inactive
Target sequence (P14416 whole entry, looked up): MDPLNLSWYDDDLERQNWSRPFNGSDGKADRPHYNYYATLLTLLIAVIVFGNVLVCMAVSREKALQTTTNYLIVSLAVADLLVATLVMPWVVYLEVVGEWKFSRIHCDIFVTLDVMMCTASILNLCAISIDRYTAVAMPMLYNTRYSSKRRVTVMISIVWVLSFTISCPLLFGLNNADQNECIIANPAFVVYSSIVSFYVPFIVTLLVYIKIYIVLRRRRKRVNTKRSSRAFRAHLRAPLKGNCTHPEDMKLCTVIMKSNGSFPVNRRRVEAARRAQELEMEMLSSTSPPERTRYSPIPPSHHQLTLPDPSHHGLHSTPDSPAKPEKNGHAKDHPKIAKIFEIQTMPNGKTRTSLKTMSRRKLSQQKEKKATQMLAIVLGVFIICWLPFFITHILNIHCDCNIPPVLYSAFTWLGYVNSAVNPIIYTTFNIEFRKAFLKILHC
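Agonist mode: compounds alone added to overnight-plated D2 PathHunter cells for 90 min at 37 C, with 57 uM final dopamine (EC100) defining full response. Beta-arrestin recruitment detected by chemiluminescent reagent, read after 1 h at ambient temperature.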
* hit, by the source's call; ? = inconclusive; / = not tested or not shown; & = joins results of further samples; [ ] = dose if it differs, or a comment.

The line under a structure holds: gsp antagonist, gsp ag, ClpP mod, PINK1 modulator, Menin-MLL FL inh, Sfp inh, D2 agonist
1) COc1ccc(Cl)cc1C(=O)NNC(=O)COC(=O)CCN=C1NS(=O)(=O)c2ccccc21
 : 13.5%, -2.9%, 2.2%, 0.5%, /, /, -20.2
2) CCOC(=O)Cc1csc(NC(=O)Cn2cnc3c2c(=O)n(C)c(=O)n3C)n1
 : 9.5%, 14.6%[15.4 µM], /, 1.6%, 0.1, -3.2%, -1.5
3) Cc1ccc(CC2SC(N)=NC2=O)cc1 (configuration not stated)
 : 7.0%, -5.5%, 1.4%, -0.2%, -1.1, -8.9%, -7.4
4) N#Cc1c(/N=C/N2CCOCC2)sc2c1CCCCC2
 : -2.4%, -34.6%[inhibitor], 0.6%, -0.9%, 0.8, 1.8%, -1.2
5) O=C1C(c2ccccc2)c2ccccc2N1Cc1ccccc1 (configuration not stated)
 : 4.5%, -5.6%, /, ?, /, /, -4.3
6) O=C(COC(=O)Cn1[nH]c(=O)c2ccccc2c1=O)NNC(=O)c1ccccc1
 : 3.4%, 15.6%, -11.5%, 1.1%, /, /, -4.2
7) O=C(Nc1nc2c(s1)CN(Cc1ccccc1)CC2)C1CCCC1
 : 7.1%, 2.2%[15.4 µM], 0.7%, 0.6%, 5.8, -7.3%, -5.3
8) COc1ccc(CCN2CC(C(=O)N(C)CC(=O)Nc3ccc(F)c(F)c3F)CC2=O)cc1OC (configuration not stated)
 : -4.0%, -31.1%[inhibitor], -0.3%, 0.2%, /, /, -0.9
9) CCOC(=O)C1=C(C)OC(=Cc2ccccc2)C1=O
 : /, -62.0%[inhibitor], 2.6%, -0.7%, /, /, -3.0
10) O=C(CCc1nnc2ccc(NCc3ccco3)nn12)Nc1ccccc1F
 : 1.8%, -2.9%, -0.5%, 4.2%, /, 5.4%, -3.6
11) Cc1ccc(C)c2[nH]c(=O)c(CCNC(=O)c3ccc(S(=O)(=O)N(C)C)cc3)cc12
 : -14.5%, ?, -12.5%, 0.2%, 3.6, 16.7%, -2.7
12) C/C(=N\NC(=O)C1CC1c1ccccc1)c1ccc(C)s1 (configuration not stated)
 : -3.0%, -2.3%, 25.3%, 2.5%, -0.1, 16.1%, -1.6
13) CC(C)CC(COCc1cccc(C(F)(F)F)c1)N1CCN(C(=O)c2cccc(C(F)(F)F)c2)CCC1=O (configuration not stated)
 : -7.2%, -14.5%, 1.5%, -1.3%, 1.2, 12.3%, 4.3
14) CC(CCc1ccccc1)NC(=O)c1cccnc1 (configuration not stated)
 : -0.1%, 27.1%, -0.5%, 2.3%, -0.3, 3.3%, -1.3
15) Cc1nnsc1NC(=O)OCc1ccc(Cl)cc1Cl
 : -10.6%, -0.2%, -10.6%, 1.9%, 1.3, 13.1%, -0.1
16) Cn1cc(CC(=O)NCCCN2CCCC2)c2ccccc21
 : -6.4%, 1.3%, -19.7%, -0.5%, 2.9, 10.7%, -1.8
17) COc1cc(/C=N/NC(=O)c2ccccn2)ccc1OC(=O)c1ccc(Br)cc1
 : -6.5%, -33.9%, 48.3%, 6.6%, -5.5, 0.7%, -3.7
18) O=S(=O)(c1cccc(NC(=S)N2CCN(c3ccccc3F)CC2)c1)C(F)F
 : -20.9%, -25.0%, -0.9%, 7.8%, 0.6, 13.4%, 6.0
19) CN(C(=O)c1ccc2c(=O)n3c(nc2c1)CCCCC3)c1cccc(Cl)c1
 : 2.7%, -0.3%, /, 6.4%, -0.1, 18.9%, 4.7
20) O=C(CCCOc1ccccc1)OCn1nnc2ccccc2c1=O
 : 1.9%, 15.4%, 0.0%, 0.4%, 4.5, -4.8%, 2.5
21) COc1ccc(C=NCCc2ccc(OC)c(OC)c2)cc1OC
 : /, -1.1%, -2.4%, 0.3%, /, /, -3.9
22) O=C(COc1ccccc1F)Nc1ccc(S(=O)(=O)Nc2nccs2)cc1
 : -6.2%, 28.7%, /, -1.9%, -4.6, 12.0%, 4.5
23) Cc1ccc(CN2CCC(=O)N2)cc1
 : 9.9%, -22.4%, -2.1%, 0.0%, 0.3, 1.5%, 10.7
24) Cn1c(=O)c2c(ncn2Cc2ccccc2)n(C)c1=O
 : 7.9%, /, -0.3%, 1.8%, 0.3, 17.9%, -3.2
25) O=C(c1cccc(NS(=O)(=O)c2ccccc2)c1)N1CCCC1
 : 0.9%, -32.3%, -2.5%, -0.6%, /, 11.3%, 1.6
26) CN1CCN(CCCCOc2ccccc2C=O)CC1
 : 5.9%, 16.5%, /, -2.3%, 4.6, 25.1µM*, 0.4
27) COC(=O)c1ccc(C)c(NC(=O)CCNC(=O)c2ccc([N+](=O)[O-])cc2)c1
 : 17.1%, -6.5%, 4.4%, -0.8%, 4.7, 12.8%, 3.3
28) CC(=O)Nc1ccc(-c2csc(NNC(=O)c3ccccc3)n2)cc1
 : 7.7%, -68.7%[inhibitor], -2.5%, -0.9%, 6.6, 17.8µM*, -2.9
29) CCOc1ccccc1NC(=O)COC(=O)c1ccccc1SCC(=O)N1CCCC1
 : -24.8%, -21.1%, 34.8%, 0.2%, /, /, 6.4
30) COc1ccccc1-c1nc(C#N)c(N2CCN(C(=O)c3ccco3)CC2)o1
 : 6.8%, ?, ?, 8.3%, /, 8.0%, -1.9
31) Cc1nc2ccc(NC(=O)c3ccc([N+](=O)[O-])cc3[N+](=O)[O-])cc2s1
 : 7.6%, 3.2%[15.4 µM], 0.8%, 3.4%, -0.6, 9.2%, ?
32) Cc1ccc(SCCN2CCC(C(C)(C)C)CCC2=O)cc1 (configuration not stated)
 : -4.1%, 5.6%, -2.6%&1.4%, 3.1%, 0.4, 12.2%, -3.7
33) COc1ccc(Nc2c3c(nc4ccccc24)CCC3)cc1
 : 8.0%, -3.2%[15.4 µM], 0.8%, ?, -1.0, -11.2%, -2.0
34) COc1ccc(CCC(C)NC2CCCCCCC2)cc1 (configuration not stated)
 : -11.3%, -2.9%[15.4 µM], -1.1%, 3.7%, -1.3, 10.1%, -0.5
35) CCc1sc(N(C(=O)Cc2ccccc2)c2cccc(F)c2)nc1-c1ccc(C)cc1
 : 38.3%[activator], -15.4%, -1.9%, 2.2%, 7.5, 3.4%, -3.4
36) Cn1nc(C(=O)NCCCN2CCCCC2)c2c1-c1ccccc1SC2
 : 7.7%, -23.4%, 0.0%, 2.9%, 2.1, 5.2%, 0.4
37) O=C(C1CCC(CNc2nc(=S)[nH]c3ccccc23)CC1)N1CCN(c2ccc(F)cc2)CC1 (configuration not stated)
 : -9.8%, -6.9%[15.4 µM], /, 11.6%, -1.1, 27.0%, 0.2
38) CC1CCN(Cc2c(O)ccc3c(=O)c(-c4nc5ccccc5s4)c(N)oc23)CC1
 : -2.6%, 5.2%, 4.1%, -1.3%, -0.1, 13.6%, -2.9
39) CCOC(=O)N1CCC(NS(=O)(=O)c2ccc3c(c2)oc(=O)n3C)CC1
 : 2.5%, 6.7%, -3.8%, 3.1%[38.3 µM], 21.2, -1.5%, 0.0
40) CC(=O)Nc1ccc2[nH]c(C)cc(=O)c2c1
 : 5.4%, -25.9%, 31.6µM*, -1.0%, 2.1, 9.7%, -1.7
41) COc1ccc(CCN(Cc2cc3cc(C)cc(C)c3nc2Cl)C(=O)C2CC2)cc1
 : -23.6%, -38.4%[inhibitor], ?, -6.0%[38.3 µM], -4.5, -8.9%, -1.4
42) COc1ccc(C(C)(NC(C)=O)c2nc(-c3ccc(F)cc3OC)cs2)cc1 (configuration not stated)
 : /, /, 1.2%, 3.1%, /, /, -2.4
43) O=[N+]([O-])c1cccc(S(=O)(=O)NCCc2ccccc2)c1
 : -0.5%, -8.2%, 1.8%, 0.3%, -1.5, 1.1%, -1.3
44) CCCCN(CCCC)Cc1cc2ccccc2c2c1COC2
 : -13.7%, 1.1%, ?, 18.5%, 3.8, -8.8%, -2.3
45) COC(=O)c1cccc(CSc2nnc(-c3ccco3)n2-c2ccccc2)c1
 : ?, -10.5%[15.4 µM], 0.9%, -1.3%, 2.4, -1.7%, -8.9
46) CCOc1ccc(N(C)C(=O)CCc2nnc3ccc(N4CCOCC4)nn23)cc1
 : 4.8%, ?, -1.6%, -1.0%, -5.9, 18.2%, 11.1
47) CN(C(=O)c1cccc(NC(=O)Cc2ccc([N+](=O)[O-])cc2)c1)C1CC1
 : -12.9%, -47.2%[inhibitor], -0.3%, -0.1%, /, /, 4.6
48) O=C(CN(Cc1ccc(F)cc1)C(=O)CNS(=O)(=O)c1ccc(F)cc1)NCC1CCCO1 (configuration not stated)
 : -9.0%, -10.7%[15.4 µM], /, 0.4%, /, 4.8%, 2.6
49) CCCCn1c(N)c(N(CCC(C)C)C(=O)c2cc(-c3ccco3)nc3ccccc23)c(=O)[nH]c1=O
 : -2.6%, 14.9%[15.4 µM], -1.0%, 8.4%, /, ?, 5.0
50) O=C(COC(=O)/C=C/c1ccc(Cl)cc1Cl)NCCC1=CCCCC1
 : -11.1%, 2.6%[15.4 µM], -4.6%, 2.8%, 3.8, -3.0%, -5.3
51) Cc1ccccc1-n1ncc2c1CC(C)(C)CC2NC(=O)C1=CC(=O)CC(C)(C)O1 (configuration not stated)
 : -8.2%, 2.1%, -0.3%, ?, -3.2, -0.9%, -3.6
52) COc1cc(NC(=O)Nc2nnc([C@H]3C[C@H](O)[C@@H](CO)O3)s2)cc(OC)c1
 : /, /, -2.1%, 0.2%, /, /, -2.5
53) COc1cc(S(=O)(=O)Nc2ccccc2C(=O)N2CCCCC2)ccc1NC(C)=O
 : 4.8%, -12.1%, 0.6%, 2.6%, /, /, -2.2

Bioassay records from PubChem.
